Screens deposited in PubChem by several laboratories.
Vif TR-FRET: inhibitors of Vif binding to APOBEC3G peptide, primary screen, biochemical, TR-FRET, GST-Vif 1-94, biotin-A3G peptide, dose response retest (AID 1117319). TR-FRET GST-Vif / biotin-A3G peptide binding; higher % means a stronger effect; test concentration not given here; strong numbers were not always called active. inhibition, %; hits with a dose series show IC50 in µM. 260,000 tested, 0.57% active;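 active = above the screen mean plus three standard deviations and confirmed in dose response; inconclusive = results disagree or hit not tested in dose response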;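 note: Vif residues 1-94 fused to GST binding biotinylated APOBEC3G peptide 110-148; 0% = full assay without inhibitor and 100% = GST in place of GST-Vif; retest series ran down from 100 µM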
E coli growth: E. coli growth inhibition, primary screen, OD600 | 330,000 tested, 0.21% active | Escherichia coli growth, 23 h; stronger effect = lower value | OD600 absorbance (no concentration beside the values);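 active = OD600 absorbance below the run mean of sample wells minus 3.6 SD, in any replicate, cut at about 0.56 in these data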;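 note: stock transfer was 300 nL into about 60 µL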
LANA-H2A inh: blockers of LANA interaction with H2A/H2B – biochemical, FP readout, HTS, primary screen. Protein LANA1 (Human herpesvirus 8 type P (isolate GK18)), Q9QR71. cell-free LANA-H2A/H2B peptide, fluorescence polarization. inhibition, % (no concentration beside the values). 320,000 tested, 0.6% active. AID 2629, 2010; in the data active = inhibition mostly above about 10%, no sharp cut-off; inactive = mostly below about 6.7%;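 note: stock transfer was 7.5 nL into about 10 µL; 0% = median of vehicle wells and 100% = median of positive control wells; one replicate is shown; the record names a cut of 25% in any replicate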
HNF4A DNA FP: change in binding of human HNF4A to DNA, primary screen, biochemical, fluorescence polarization, FITC-DNA; Hepatocyte nuclear factor 4-alpha (Homo sapiens), P41235; 1 h; activity change, % at 10 µM; 360,000 tested, 0.3% active; AID 1224865, 2016; in the data active = activity change above about 30%, passing the limit was not always enough;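 note: controls were the assay level and a saturating level of protein; the project sought stronger binding though the title names inhibitors; some compounds called inactive have numbers as strong as hits; positive values seem to mean higher polarization but the record does not say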
Bfl-1 A1 inh: caspase 3/7 activation in MEF A1-2A-BIM cells, primary screen, A1 inhibitor project, cell-based, luminescence, HTS | Caspase-Glo 3/7 luminescence, 3 h; percent of clofoctol response, vehicle zero | caspase activation, % (no concentration beside the values) | 330,000 tested, 0.066% active;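 active = over half of replicate activation scores above 10%, or exactly half above 10 with the replicate mean above 10; inconclusive = replicate mean below 10 yet half the replicates above 10; inactive = over half of replicates below 10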;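 note: wells of about 30 µL received 50 nL stock; many hits fall short of the cut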
B2AR ag: beta2AR agonists driving receptor internalization, primary screen, cell-based, FAP fluorogen, flow cytometry. response, % (test concentration not listed). Am2.2-beta2AR cells; reference of the scale not given here. 340,000 tested, 0.43% active;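 active = response above a set limit, near 3 SD of response in nonfluorescent compounds, cut at about 42% in these data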;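 note: stock transfer was 100 nL into about 11 µL; a reference agonist was the positive control; negative values mostly stem from fluorescent compounds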
Target sequence (P07550 whole entry, looked up): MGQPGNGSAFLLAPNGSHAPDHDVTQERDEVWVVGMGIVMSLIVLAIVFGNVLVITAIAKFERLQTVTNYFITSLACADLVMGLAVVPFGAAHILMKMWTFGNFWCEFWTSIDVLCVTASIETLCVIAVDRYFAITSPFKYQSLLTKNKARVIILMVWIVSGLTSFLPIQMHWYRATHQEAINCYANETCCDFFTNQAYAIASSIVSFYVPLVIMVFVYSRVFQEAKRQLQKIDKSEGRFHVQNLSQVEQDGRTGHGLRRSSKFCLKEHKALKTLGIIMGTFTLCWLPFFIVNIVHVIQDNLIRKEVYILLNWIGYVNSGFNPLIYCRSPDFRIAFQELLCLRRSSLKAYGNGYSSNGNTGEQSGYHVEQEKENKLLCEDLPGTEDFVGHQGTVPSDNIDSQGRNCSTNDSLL
UCH37 inh: inhibitors of human UCH37 deubiquitinase, primary screen, biochemical, Ub-AMC cleavage, fluorescence; 330,000 tested, 0.33% active; Ubiquitin carboxyl-terminal hydrolase isozyme L5 (Homo sapiens), Q9Y5K5; purified proteasome/UCH37; inhibition, % (concentration not given with the values);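 active = mean of two replicates above 20%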;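 note: 0% = compound-free wells with enzyme and 100% = wells lacking proteasome; stock transfer was 100 nL into about 20 µL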
Target sequence (Q9Y5K5 whole entry, looked up): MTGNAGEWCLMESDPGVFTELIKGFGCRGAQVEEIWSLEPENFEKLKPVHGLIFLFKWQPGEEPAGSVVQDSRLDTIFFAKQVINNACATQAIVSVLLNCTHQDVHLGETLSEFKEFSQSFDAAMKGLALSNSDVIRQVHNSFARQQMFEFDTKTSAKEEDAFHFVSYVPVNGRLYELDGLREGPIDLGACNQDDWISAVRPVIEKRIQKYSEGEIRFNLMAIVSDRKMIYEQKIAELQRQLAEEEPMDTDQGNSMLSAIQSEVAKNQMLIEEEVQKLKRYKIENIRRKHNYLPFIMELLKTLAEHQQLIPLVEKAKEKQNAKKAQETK
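Schedule: 30 min plus 25 min, room temperature / Material: human UCH37 within purified proteasomes / Technique: AMC fluorescence intensity at 355/460 nm / Buffer or medium: pH 7.4 Tris-HCl (50 mM) with ovalbumin, ATP-MgCl2, DTT / Controls: wells without proteasome as full block, compound-free enzyme plus substrate as uninhibited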
* = called active by the depositor; ? = inconclusive; nt = not tested or not shown; & = joins results of further samples.

SMILES	Vif TR-FRET	E coli growth	LANA-H2A inh	HNF4A DNA FP	Bfl-1 A1 inh	B2AR ag	UCH37 inh
N#Cc1ccc(CSc2nnc(-c3ccccn3)n2-c2ccccc2)cc1	2%	0.65	0.8	1.8	0.3	-6	2.7
Cc1ccc(S(=O)(=O)N(C)C)cc1NC(=S)NNC(=O)C1CC1	6%	0.69	nt	0.0	-0.3	3	-1.8
C=CCn1c(=O)c(C(=O)Nc2ccccc2C)c(O)c2ccccc21	5%	0.7	nt	-2.3	nt	16	-215
CN(C)C1=NCCN1CC1CCCCC1	nt	0.63	2.3	1.6	1.0	-6	4.4
CC1(C)C(=O)Nc2ccccc2N1C(=O)CSc1nc(-c2ccccc2)cs1	23%	0.67	2.9	0.5	-1.5	1	5.7
Cc1cc(C(=O)NNC(=O)CCN2CCN(c3ccccc3)CC2)c2ccccc2n1	-2%	0.64	1.9	-5.0	0.3	7	1.0
CCOc1ccc2nc(SCc3ccc(OC)cc3)sc2c1	31%	0.69	-0.8	-0.9	-0.2	-3	-1.1
O=C(c1cccs1)N1CCCC1	nt	0.68	-1.0	0.0	-0.5	4	0.9
COc1ccc(N2CCN(C(=O)c3cc4c(=O)n(Cc5ccccc5)ccc4nc3C)CC2)cc1	nt	0.66	-3.4	1.3	1.0	0	-2.4
COC(=O)[C@@]12CCCN1[C@H](c1ccc(-c3ccc(F)cc3)cc1)[C@H]1C(=O)N(C)C(=O)[C@H]12	nt	nt	-1.4	3.7	0.4	9	0.5
O=c1[nH]c2c(s1)C(c1ccco1)C1C3CCC(C3)C1S2 (stereo unspecified)	16%	0.72	3.3	7.9	-0.1	-6	5.1
COc1ccc(C(=O)NCC(=O)OCC(=O)Nc2sccc2C#N)cc1OC	17%	0.7	-2.5	-2.4	0.1	-3	-1.0
COc1cc(-c2nnn(Cc3ccccc3C)n2)cc(OC)c1OC	nt	0.63	-0.6	0.8	0.1	-1	2.0
O=C1/C(=C/c2cccnc2)SC(=NCc2ccccc2)N1Cc1ccccc1	nt	0.65	4.1	3.8	-0.4	-37	5.4
COc1cc(OC)cc(-c2sc3ccc(OC)cc3c2C#CC(C)(C)O)c1	nt	0.66	-0.8	-1.8	0.2	16	-1.9
CNC(=O)NC(=O)C(C)OC(=O)c1ccc(Cl)c(S(=O)(=O)Nc2ccc(F)cc2)c1 (stereo unspecified)	2%	0.69	-2.0	5.9	-0.8	5	1.3
Cc1nn(C)c(C)c1CS(=O)(=O)c1ccccc1	3%	0.7	1.6	0.8	0.0	4	1.4
Cc1nn(CCCC(=O)Nc2cc(Oc3ccc(F)cc3)cc([N+](=O)[O-])c2)c(C)c1[N+](=O)[O-]	8%	0.62	4.3	-1.6	0.0	-6	1.3
O=C(NCC1CCCO1)C1CC(c2ccc(Cl)c(Cl)c2)=NO1 (stereo unspecified)	5%	0.67	7.0	-2.5	-0.6	-12	6.9
O=C(NCCN1C(=O)S/C(=C\c2ccc(F)cc2)C1=O)C1CCN(S(=O)(=O)c2cccs2)CC1	-4%	0.75	4.0	1.0	0.7	-3	-9.9
O=C(Cn1cnc2ccccc2c1=O)N(Cc1ccco1)c1ccc(O)cc1	-2%	0.68	3.6	3.8	0.8	-3	3.5
CCn1c2ccccc2c2cc(NS(=O)(=O)c3ccc(C)cc3)ccc21	-2%	0.75	0.1	-1.5	0.9	4	0.1
COc1ccc(C(=O)Nc2ccc(C(=O)N3CCCCC3C)cc2)c(OC)c1OC (stereo unspecified)	nt	0.67	3.3	-1.8	0.4	2	-0.8
Cn1cccc1C(=O)NC(=O)COC(=O)c1cc([N+](=O)[O-])ccc1Cl	-4%	0.69	5.1	3.9	0.9	2	4.1
CCOc1cc(N2CCOCC2)c(OCC)cc1NC(=O)c1cc(C)nc2ccccc12	4%	0.65	-2.9	-8.5	-0.3	27	2.9
O=C(C1CCN(CCCc2ccccc2)CC1)N1CCCCC1	2%	0.77	nt	0.1	-0.2	-5	1.9
COC(=O)c1ccc(C(=O)OC)c(NC(=O)CN2CCCCC2)c1	0%	0.65	3.9	-0.2	-0.5	3	0.2
O=C(Nc1ccc(S(=O)(=O)Nc2ncccn2)cc1)c1ccc(S(=O)(=O)N2CCCC2)cc1	nt	0.7	3.0	6.9	-0.4	6	3.9
CCOC(=O)C1(Cc2ccccc2C)CCCN(Cc2cn(C)nc2C)C1 (stereo unspecified)	10%	0.69	-1.4	-2.3	0.3	0	-1.8
Cc1cc(/C(O)=C2\C(=O)C(=O)N(CCN(C)C)C2c2ccncc2)ccc1OCc1ccccc1 (stereo unspecified)	nt	0.71	-0.1	2.1	0.2	3	7.1
N#Cc1c(=O)c2nc(NCc3ccccc3)ncc2n2ccccc12	19%	0.7	-0.7	-2.8	-0.9	-7	-114
O=C(O)CC(NC(=O)CC(c1ccccc1)c1ccccc1)c1cccc([N+](=O)[O-])c1 (stereo unspecified)	-7%	0.66	-1.6	0.6	0.7	1	-0.2
O=C1CN(C(=O)COC(=O)c2oc3ccccc3c2COc2ccccc2)c2ccccc2N1	>100µM*	0.74	-2.1	2.5	0.8	-9	0.7
COc1ccc(Sc2ncnc3onc(C)c23)cc1	-3%	0.66	2.0	7.1	0.7	4	0.6
Cc1ccccc1N(C)S(=O)(=O)c1nnc(NC(=O)c2ccco2)s1	nt	0.71	1.1	-11	0.0	8	9.5
COC(=O)Cc1ccc(NC(=O)c2ccccc2Br)cc1	nt	0.68	0.0	3.0	0.7	6	2.9
Cc1ccc(S(=O)(=O)C(c2ccccc2)c2c(C)noc2C)cc1 (stereo unspecified)	4%	0.72	-5.2	-0.7	-0.8	5	2.7
O=C(NCc1ccco1)/C(=C/c1cccnc1)NC(=O)c1cccc(Br)c1	2%	0.71	1.4	-1.7	0.0	-2	2.7
Cc1cc(Cl)ccc1OCCCC(=O)Nc1ccc(S(=O)(=O)Nc2ncccn2)cc1	7%	0.65	10	0.8	-0.1	4	3.4
CCN(CC)c1ccc(NC(=O)c2ccc(Br)o2)c(C)c1	5%	0.65	-1.9	1.0	1.3	2	3.3
COc1ccc(N2CCN(C3CCCN(C(=O)C4=C(C)OCCO4)C3)CC2)cc1 (stereo unspecified)	nt	0.69	1.1	0.5	0.4	-2	4.6
CN(C)c1ccc(C(=O)OCC(=O)N2CCCC2)cc1	nt	0.68	1.7	-0.4	-0.1	1	7.4
COC(=O)c1ccc(NC(=O)c2cn(-c3ccccc3)nc2-c2ccncc2)cc1	-30%	0.78	-1.2	7.3	0.4	7	1.3
CC(C(=O)NN=C(c1ccccc1)c1ccccc1)N1CCCC1 (stereo unspecified)	nt	0.69	0.8	1.9	0.6	0	1.7
C=C(C)COc1ccc(-c2[nH]ncc2Oc2cccc(OC)c2)c(O)c1	6%&3%	nt	8.2	0.8	-0.1	14	-1.0
COc1ccc(Cl)cc1NC(=O)CN(C)C(=O)CN1C(=O)NC(C)(C)C1=O	-5%	0.71	1.0	4.0	-1.0	0	2.2
Cc1cccc(CN2CCN(CC(=O)NCCCN3CCN(c4ccc(F)cc4)CC3)C2=O)c1	0%	0.63	-1.2	0.3	-0.1	3	2.1
O=C(Nc1ccccc1)C1=C[C@@H](c2ccc(C(F)(F)F)cc2)C[C@@H](OCCCCO)O1	nt	nt	-6.7	3.8	-1.6	3	5.5
O=C(c1ccncc1)N1CCN(S(=O)(=O)c2ccccc2Br)CC1	0%	0.68	-1.3	0.1	0.9	-2	-1.7
Cc1cc(Br)ccc1OCC(=O)NNC(=O)c1cnccn1	nt	0.7	1.0	-0.4	-0.2	6	0.6
O=c1[nH]c(NCc2ccccc2)nc2c1CCC2	4%	0.69	-2.1	0.9	0.5	-7	0.9
CCCCN(C)C(=O)Cn1c(=O)oc2cc(S(=O)(=O)N3CC(C)CC(C)C3)ccc21 (stereo unspecified)	-2%	0.7	0.6	-4.7	0.2	5	4.1
COCCSc1nnc(NC(=O)CSc2ccccc2)s1	19%	0.65	-4.1	-0.4	0.1	-10	1.7
COc1cccc(C2=NC(C)(C)NC(c3ccccc3O)C2)c1 (stereo unspecified)	9%	0.73	4.0	3.7	-0.9	15	-0.4
N/C(Cc1ccc([N+](=O)[O-])cc1)=N\OC(=O)c1ccc(Br)cc1	-1%	nt	2.5	1.7	-0.8	-6	nt
CC(C)c1cn(C2OC(COC(=O)c3ccccc3)C(OC(=O)c3ccccc3)C2OC(=O)c2ccccc2)c(=O)[nH]c1=O (stereo unspecified)	nt	0.7	2.0	1.0	0.2	5	0.8
CCOC(=O)C1CCCCN1C(=O)CCc1c(C)nc2ncnn2c1C (stereo unspecified)	1%	0.68	-1.2	5.2	0.5	5	4.9
O=C(/C=C/c1ccccc1)NC(=S)Nc1ccc(N2CCOCC2)cc1	10%	0.67	2.2	-0.7	1.9	-3	2.1
Cc1ccc(C(=O)N/N=C\c2cc3c(cc2Br)OCO3)cn1	nt	nt	0.2	-0.6	-0.1	-2	nt
CCC(=O)NC(/C=C/c1ccccc1)c1cc([N+](=O)[O-])c2cccnc2c1O (stereo unspecified)	?	nt	4.6	nt	0.4	nt	nt

Overlap with the part before: three entries, then new ones.
SMILES	Vif TR-FRET	E coli growth	LANA-H2A inh	HNF4A DNA FP	Bfl-1 A1 inh	B2AR ag	UCH37 inh
O=C(/C=C/c1ccccc1)NC(=S)Nc1ccc(N2CCOCC2)cc1	10%	0.67	2.2	-0.7	1.9	-3	2.1
Cc1ccc(C(=O)N/N=C\c2cc3c(cc2Br)OCO3)cn1	nt	nt	0.2	-0.6	-0.1	-2	nt
CCC(=O)NC(/C=C/c1ccccc1)c1cc([N+](=O)[O-])c2cccnc2c1O (stereo unspecified)	?	nt	4.6	nt	0.4	nt	nt
CCN(C(=O)CCS(=O)(=O)c1cccc2nonc12)c1ccc(F)cc1	2%	0.7	-2.1	2.6	0.5	-5	0.8
C/C(=N\NC(=S)NCc1ccccc1)c1ccc2c(c1)OCCO2	-5%	nt	-4.3	-0.8	1.0	-21	nt
CS(=O)(=O)N1N=C(c2ccco2)CC1c1ccc(Cl)cc1 (stereo unspecified)	nt	0.69	1.1	2.9	0.9	8	5.7
COc1cc(C(=O)NCC(c2ccco2)N2CCc3ccccc3C2)cc(OC)c1OC (stereo unspecified)	2%	0.67	0.3	-0.2	0.9	-3	3.1
CSc1ccc(C(=O)NCC(c2ccco2)N(C)C)cc1[N+](=O)[O-] (stereo unspecified)	nt	0.66	-4.6	-1.7	-0.2	-6	0.8
COc1ccccc1OCCNC(=O)c1cc(C2CC2)nc2c1cnn2C(C)C	?	0.6	6.2	-0.7	-0.5	10	-5.4
COc1ccc(Cl)cc1NC(=O)C1CC(c2c(F)cccc2Cl)=NO1 (stereo unspecified)	-5%	0.68	-1.2	0.4	1.6	7	5.6
CCOC(=O)/C=C/C(=O)Nc1ccc(S(=O)(=O)Nc2nccs2)cc1	1%	0.64	0.4	-2.2	-0.1	1	3.5
O=C(NC(=O)c1ccccc1)Nc1ccc(-c2cnco2)cc1	-4%	0.69	6.6	5.0	-6.4	-1	-0.5
